rRNA inh HTS – selective bacterial rRNA inhibition in E. coli; 1.6% of 350,000 active; GFP signal change (wild-type ribosome), % (no concentration beside the values); E. coli WT GFP vs humanized-ribosome RFP mutants, fluorescence, 24 h; active compounds read low; DMSO median 0, no signal -100;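 active = significant combined selectivity score with lowered wild-type GFP, culture density cut under 30%, mutant RFP and density less affected; inactive = any of these conditions unmet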; also: one replicate is shown; some compounds called inactive have numbers as strong as hits
ALR H2O2 inh – blocks human ALR sulfhydryl oxidase activity. inhibition, % (concentration not given with the values). P55789. purified ALR, DTT oxidation, H2O2 HRP-luminol luminescence. 3.8% of 290,000 active. AID 485317;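 active = mean and each replicate at 75% or more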;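 also: stock transfer was 7.5 nL into about 7.5 µL; 0% = neutral wells and 100% = wells with inactivated enzyme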
Target sequence (P55789 whole entry, looked up): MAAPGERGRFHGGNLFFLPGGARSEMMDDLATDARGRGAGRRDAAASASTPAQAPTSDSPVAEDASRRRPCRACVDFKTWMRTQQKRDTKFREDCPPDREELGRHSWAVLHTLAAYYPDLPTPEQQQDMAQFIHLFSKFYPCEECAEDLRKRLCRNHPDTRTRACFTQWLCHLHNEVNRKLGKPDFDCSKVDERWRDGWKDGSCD
Ecoli growth – blocks Escherichia coli growth; OD600, 23 h; active compounds read low; OD600 absorbance (concentration not given with the values); 0.21% of 330,000 active; AID 1053175;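 active = OD600 absorbance below the run mean of sample wells minus 3.6 SD, in any replicate, cut at about 0.56 in these data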;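 also: stock transfer was 300 nL into about 60 µL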
UCH37 inh – human UCH37 deubiquitinating enzyme inhibition; inhibition, % (no concentration beside the values); 0.33% of 330,000 active; purified proteasome/UCH37, Ub-AMC cleavage fluorescence; Q9Y5K5; AID 588478;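 active = mean of two replicates above 20%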;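 also: 0% = compound-free wells with enzyme and 100% = wells lacking proteasome; stock transfer was 100 nL into about 20 µL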
Target sequence (Q9Y5K5 whole entry, looked up): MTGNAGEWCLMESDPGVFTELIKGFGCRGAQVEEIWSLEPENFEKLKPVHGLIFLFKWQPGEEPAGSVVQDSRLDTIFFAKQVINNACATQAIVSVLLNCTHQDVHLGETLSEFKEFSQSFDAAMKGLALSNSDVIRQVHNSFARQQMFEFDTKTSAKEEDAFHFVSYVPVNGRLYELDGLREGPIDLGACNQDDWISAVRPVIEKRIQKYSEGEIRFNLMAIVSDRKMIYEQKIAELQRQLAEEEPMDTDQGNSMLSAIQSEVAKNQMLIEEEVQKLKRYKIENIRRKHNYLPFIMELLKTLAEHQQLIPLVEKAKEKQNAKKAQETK
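Signal – fluorescence, ex 355 nm, em 460 nm · System – Proteasome-bound UCH37 · Input – 0.15 nM proteasome as dispensed · Timing – 30 min preincubation with enzyme, 25 min cleavage at room temperature · Read-out basis – percent inhibition of cleavage signal versus uninhibited and no-proteasome wells · Medium – Tris-HCl pH 7.4 with ATP-MgCl2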
HNF4A DNA FP – change in binding of human HNF4 alpha to DNA | 0.3% of 360,000 active | P41235 | HNF4a-FITC DNA binding, fluorescence polarization, 1 h | activity change, % at 10 µM; in the data active = activity change above about 30%, passing the limit was not always enough;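 also: controls were the assay level and a saturating level of protein; the project sought stronger binding though the title names inhibitors; some compounds called inactive have numbers as strong as hits; positive values seem to mean higher polarization but the record does not say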
FGF22 binding – binders of recombinant human FGF22 by thermal shift. Q9HCT0. SYPRO orange fluorescence; percent of sucrose octasulfate shift, DMSO zero. calls only at 9.99 µM. 1.5% of 340,000 active. AID 651658;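 active = melting point raised past a set limit in the mean and every replicate; three in four hits are not shown here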
Beta2AR agonist – human beta-2 adrenergic receptor agonism by FAP; P07550; Am2.2-beta2AR cells, FAP receptor internalization, flow cytometry; reference of the scale not given here; response, % (test concentration not listed); 0.43% of 340,000 active;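 active = response above a set limit, near 3 SD of response in nonfluorescent compounds, cut at about 42% in these data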;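 also: stock transfer was 100 nL into about 11 µL; a reference agonist was the positive control; negative values mostly stem from fluorescent compounds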
Target sequence (P07550 whole entry, looked up): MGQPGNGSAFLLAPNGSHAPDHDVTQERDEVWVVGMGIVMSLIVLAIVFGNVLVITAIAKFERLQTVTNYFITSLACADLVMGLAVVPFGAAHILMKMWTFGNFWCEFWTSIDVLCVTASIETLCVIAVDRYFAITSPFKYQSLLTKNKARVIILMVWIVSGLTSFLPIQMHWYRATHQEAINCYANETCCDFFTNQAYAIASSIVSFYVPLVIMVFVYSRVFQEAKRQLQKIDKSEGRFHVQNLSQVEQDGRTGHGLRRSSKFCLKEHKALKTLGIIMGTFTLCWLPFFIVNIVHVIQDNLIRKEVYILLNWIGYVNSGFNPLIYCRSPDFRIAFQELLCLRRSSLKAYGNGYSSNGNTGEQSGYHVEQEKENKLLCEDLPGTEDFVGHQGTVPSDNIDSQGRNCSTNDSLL
rRNA inh HTS OD600 – recorded beside rRNA inh HTS, whose call it bears; OD600 change, %; measured here: OD600 growth;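 optical density of the mix in the first replicate; 0 = DMSO median and -100 = no signal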
rRNA inh HTS RFP – second read-out of rRNA inh HTS, no call of its own (marks repeat the call); RFP signal change, %; measured here: RFP humanized mutant strains;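 first replicate; 0 = DMSO median and -100 = no signal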
The depositor's hits bear a star; i = inactive; . = not tested or not shown; & = joins results of further samples. The list is partial; count on the stated rates, not on these rows.

HNF4A DNA FP,Ecoli growth,rRNA inh HTS RFP,UCH37 inh,rRNA inh HTS OD600,rRNA inh HTS,FGF22 binding,ALR H2O2 inh,Beta2AR agonist,Molecule
2.5,0.711,3.3,-42.9,5.2,1.4,i,-11.1,0.3,COCc1cc(C)n(CC(=O)NCC2CCCO2)c(=O)c1C#N (stereo not drawn)
-7.5,0.674,.,-0.5,.,.,.,-23.5,0.4,Cc1nc(-c2cccc(S(=O)(=O)N3CCCCCC3)c2)cs1
1.4,0.69,0.9,4.5,7.1,13.1,i,-1.5,1.9,CN(C(=O)COC(=O)CN1C(=O)C2CC=CCC2C1=O)c1ccccc1 (stereo not drawn)
-0.4,.,-1.4&0.9,.,19.3&0.1,7.1&2.4,i,.,.,C[C@H]1CN([C@@H](C)CO)C(=O)CCCn2cc(nn2)CO[C@@H]1CN(C)S(=O)(=O)c1ccc(-n2cccn2)cc1
4.3,0.695,5.4,2.1,13.6,18.8,i,.,-4.4,C=CC1=CCN(S(=O)C(C)(C)C)[C@@H]1CCO (stereo partly drawn)
1.9,0.631,3.1,-17.4,-60.0,-34.7,i,.,16.5,COc1ccc(Nc2nnc(-c3ccc(O)cc3)c3ccccc23)cc1
-3.5,0.699,2.7,0.3,7.6,23.6,i,-1.1,-2.6,O=C(Nc1cccc(O)c1)c1c(O)c2ccccc2[nH]c1=O
-1.1,0.681,.,-4.2,.,.,.,48.8,-12.3,Cc1nc2cc(-c3sccc3-n3cccc3)nn2c(C)c1C
4.8,0.713,-0.4,3.3,3.0,5.6,i,.,-1.5,O=C(Cn1cc(C(=O)C2CCCCC2)c2ccccc21)NCC1CCCO1 (stereo not drawn)
-0.8,0.693,1.8,-0.3,23.9,12.8,i,-0.1,13.2,COc1ccc(-c2cc(C(=O)N3CCN(c4ccc(F)cc4)CC3)no2)cc1OC
-0.4,0.703,-1.9,2.8,-6.3,-2.4,i,-8.4,-8.2,COc1cccc(OCc2cc(C(=O)N3CCN(C(=O)c4ccco4)CC3)no2)c1
-0.1,.,.,.,.,.,.,0.5,5.6,O=C1C2=C(SCCS2)C(=O)N1CCCO
-2.1,.,-11.5,1.6,-9.1,-14.8,i,2.8,6.9,C[C@@H]1CN(S(=O)(=O)c2ccc3c(c2)OCCO3)CCN1S(=O)(=O)c1c(F)cccc1F
-0.4,0.677,.,-5.5,.,.,.,3.3,5.7,Cn1c2ccccc2c2cc(C(=O)NNS(=O)(=O)c3ccc(F)cc3)sc21
0.2,.,-0.9,.,-21.2,-14.9,i,.,7.5,CC(=O)N(C1=C(Cl)C(=O)c2ccccc2C1=O)c1ccc(C(=O)O)cc1
1.4,.,-1.7,.,6.1,9.5,i,-5.7,-1.2,O=C1Nc2ccccc2C1(O)C/C(=N/O)c1ccccc1 (stereo not drawn)
3.0,0.748,.,-2.0,.,.,.,19.8,-2.0,CCOC(=O)C1=C(N)N2C(=O)CSC2=C(C(=O)OC)C1
1.3,0.654,-0.7,-0.7,-3.1,-6.4,i,10.1,3.5,CS(=O)(=O)c1ccc2nc(NC(=O)c3ccccc3)sc2c1
-2.8,0.678,.,2.4,.,.,.,-7.0,-2.9,Cc1ccc(OCC(=O)NCc2cccs2)cc1
-2.6,0.777,.,4.3,.,.,.,-24.6,0.6,Cc1cccc(-n2c(=O)c3c(n4cnnc24)-c2ccccc2CC32CCCCC2)c1
-0.6,0.668,0.3,3.8,7.4,12.6,i,0.8,5.8,COC(=O)CSc1nnc(CCc2ccccc2)n1C
0.5,.,17.1,.,9.9,4.7,i,-2.9,-17.6,COc1ccc(Cl)cc1N(CC(=O)N/N=C/c1ccc(OC(C)C)cc1)S(=O)(=O)c1ccc(C)c([N+](=O)[O-])c1
-2.4,0.663,-1.9,0.1,2.3,-1.6,i,-0.5,-15.9,CC1CCN(c2ccc3nnc(CCC(=O)Nc4cc(F)ccc4F)n3n2)CC1
1.7,.,-1.0,.,18.5,12.4,i,.,.,CN(C)CCCNc1nc2cc(-c3ccn[nH]3)sc2c(=O)n1C
-1.2,0.715,.,3.6,.,.,.,-2.8,1.2,COc1cccc(C2C(C#N)=C(N)N(c3ncn[nH]3)C3=C2C(=O)CCC3)c1 (stereo not drawn)
4.5,0.666,0.2,-0.5,3.5,-3.8,i,-4.0,-9.7,COC(=O)c1sc2ncn(CC(=O)NCCc3ccc(OC)c(OC)c3)c(=O)c2c1C
-3.7,0.679,-7.4,-362.7,-30.6,-15.6,i,-1.1,-1.9,Cc1c(CCC(=O)O)c(=O)oc2cc(OCc3cccc(F)c3)ccc12
4.3,0.674,10.3,-1.4,-4.0,2.1,i,.,-0.5,N#Cc1ccccc1OCC(=O)Nc1cc(S(=O)(=O)N2CCCCC2)ccc1N1CCOCC1
-1.2,0.672,1.6,1.7,2.5,0.4,.,-1.0,6.0,COc1ccc(CCN2CC(C(=O)NCC(=O)Nc3ccc(F)c(F)c3)CC2=O)cc1OC (stereo not drawn)
-2.2,0.704,-6.9,7.6,-48.3,-43.7,i,-10.6,14.9,CN(C)CCCN(C(=O)c1ccc(C(=O)c2ccccc2)cc1)c1nc2cc3c(cc2s1)OCCO3

Retrieved one by one from above, four records:
HNF4A DNA FP,Ecoli growth,rRNA inh HTS RFP,UCH37 inh,rRNA inh HTS OD600,rRNA inh HTS,FGF22 binding,ALR H2O2 inh,Beta2AR agonist,Molecule
4.3,0.674,10.3,-1.4,-4.0,2.1,i,.,-0.5,N#Cc1ccccc1OCC(=O)Nc1cc(S(=O)(=O)N2CCCCC2)ccc1N1CCOCC1
-2.4,0.663,-1.9,0.1,2.3,-1.6,i,-0.5,-15.9,CC1CCN(c2ccc3nnc(CCC(=O)Nc4cc(F)ccc4F)n3n2)CC1
-0.6,0.668,0.3,3.8,7.4,12.6,i,0.8,5.8,COC(=O)CSc1nnc(CCc2ccccc2)n1C
-1.2,0.672,1.6,1.7,2.5,0.4,.,-1.0,6.0,COc1ccc(CCN2CC(C(=O)NCC(=O)Nc3ccc(F)c(F)c3)CC2=O)cc1OC (stereo not drawn)

Next part
HNF4A DNA FP,Ecoli growth,rRNA inh HTS RFP,UCH37 inh,rRNA inh HTS OD600,rRNA inh HTS,FGF22 binding,ALR H2O2 inh,Beta2AR agonist,Molecule
0.5,0.628,1.8,-5.0,10.2,14.5,i,.,-7.1,Cc1ccccc1NC(=O)CSc1nnc2ccc(-c3cccnc3)nn12
-4.3,0.611,-6.7,19.6,-20.0,-10.2,i,6.6,-2.2,CCCCNC(=S)N(C)N=C1CCC(c2ccccc2)CC1 (stereo not drawn)
1.6,0.717,.,5.9,.,.,.,-2.3,-12.2,O=C(NCCN1CCN(Cc2ccccc2)CC1)C1CC(=O)N(C2CCCC2)C1 (stereo not drawn)
-8.2,0.637,0.1,3.6,1.7,3.3,i,-3.3,5.7,O=C(Cn1cnc(S(=O)(=O)N2CCCC2)c1)Nc1cccc(Br)c1
-0.2,0.673,.,3.2,.,.,.,-28.1,-1.8,CCOC(=O)N1CCC(NC(=O)CCc2c(C)nc3ncnn3c2C)CC1
0.9,.,-0.1,.,12.2,-1.8,.,.,.,CCOC(=O)C1=C[C@@H](CC)N(S(=O)(=O)c2ccc(C)cc2)[C@H]1c1cccc(Cl)c1
1.6,0.718,.,0.0,.,.,.,89.6*,-0.1,CCOC(=O)N1CCN(C(=O)CSCC(=O)Nc2nc(-c3cccs3)cs2)CC1
3.7,0.699,.,-1.3,.,.,.,49.7,6.6,Cc1cccn2c(NC(=O)c3cccs3)c(-c3ccccc3)nc12
3.0,0.718,-4.8,4.1,-7.0,-15.9,i,21.8,-2.3,NS(=O)(=O)c1ccc(NC(=O)c2ccc(S(=O)(=O)N3CCc4ccccc43)cc2)cc1
-4.6,0.648,-1.9,1.7,6.2,0.9,i,-0.3,-9.6,CN1C(=O)C(C)(C)c2cc(S(=O)(=O)NCC3CCC(C(=O)NC4CCCCC4)CC3)ccc21 (stereo not drawn)
-3.4,0.698,4.7,2.6,-5.1,-7.3,i,-2.7,-1.9,Cc1ccc(NC(=O)CNc2cccc(S(=O)(=O)N3CCCC3)c2)cc1F
1.2,0.689,-1.2,1.5,16.2,8.2,i,23.2,-2.3,NC(=O)c1ccc(NC(=O)COC(=O)C2CCN(S(=O)(=O)c3cccs3)CC2)cc1
4.2,.,23.5,0.4,7.3,4.5,i,3.9,1.8,COC(=O)[C@H](Cc1ccccc1)[C@@H](C)OS(N)(=O)=O
0.5,.,16.9,.,5.0,1.8,i,.,.,COC(=O)c1ccc2nc(C3CCCCC3)c(Cc3ccccc3C(F)(F)F)n2c1
14.0,0.631,.,6.1,.,.,.,11.2,1.3,O=C(NC(=S)Nc1ccc(-c2ccc(CO)o2)cc1)c1cccs1
-3.0,0.725,2.4,3.6,-0.5,-0.8,i,1.3,2.4,Cc1noc(C(=O)N2CC3(C)CC2CC(C)(C)C3)c1Cl (stereo not drawn)
34.9*,0.651,.,-1.2,.,.,.,-58.4,0.9,Nc1c2c(nc3ccccc13)CCC2
-0.8,0.721,-0.7,-2.0,12.3,12.5,i,-3.8,0.6,CC(=O)c1cccc(NC(=O)NN2CCN(C)CC2)c1
4.6,0.683,-8.3,-0.1,12.2,13.9,i,-13.2,-19.9,Cc1nc2cc(-c3ccccc3)sc2c(=O)n1N
0.0,0.765,-4.9,5.8,0.8,-5.7,i,-60.0,2.1,CCOc1ccc(OCC)c(NC(=O)C2CCCN2S(=O)(=O)c2cccc3cccnc23)c1 (stereo not drawn)
1.1,0.691,-0.2,-0.5,4.7,17.9,i,5.1,-2.8,CC(=O)Nc1ccc(C(=O)NN2C(=O)c3ccccc3C2=O)cc1
-4.2,0.679,.,6.0,.,.,.,98.8*,5.3,O=C1NCCCc2c1oc1cc(Br)c(O)c(Br)c21
-3.1,0.792,.,-77.8,.,.,i,.,-5.4,Cc1c(C)c2ccc(OCC(=O)N3CC[C@@]4(O)CCCC[C@H]4C3)c(C)c2oc1=O
-1.5,0.733,.,7.2,.,.,.,70.5,4.4,N#CC1=C(N)NC(SCC(=O)Nc2ccccc2)=C(C#N)C12CCCCC2
0.8,0.695,.,2.9,.,.,.,-8.3,-10.4,CC(=O)c1cc(-c2ccc(F)cc2)n(CCC(=O)Nc2cc(C)[nH]n2)c1C
3.1,.,-4.4,.,-3.1,0.6,i,.,.,O=C1NC[C@H](CCCCN2C[C@H](Cc3ccc(O)cc3)N(CCc3ccc(O)cc3)C(=O)C2=O)N(Cc2ccccc2)C1=O
-2.6,0.722,4.7,3.5,7.9,4.8,i,-17.0,-6.7,CC(=O)C(Cc1ccc(Cl)nc1)(Cc1ccc(Cl)nc1)C(C)=O
3.5,.,-2.4,.,-32.2,-4.9,i,-6.6,0.3,COc1ccc(-c2cc(C(=O)N/N=C/c3cccnc3)c3ccccc3n2)cc1
1.1,.,-1.5,.,3.1,1.4,i,-3.9,-2.8,COc1ccc(/C=C/C(=O)NCC(=O)N/N=C/c2cccs2)cc1
-4.4,0.695,.,0.5,.,.,.,-9.8,2.7,COc1ccc(N2C(=O)CCC(C(=O)Nc3cccc(C)n3)C2c2ccc(OC)c(OC)c2)cc1 (stereo not drawn)
-0.2,.,18.6,.,-51.6,-30.7,i,1.2,-3.9,Cc1cc(C(=O)N/N=C\C(Br)=C\c2ccccc2)c(C)o1
1.9,0.652,-0.7,-3.6,3.0,11.4,.,.,-0.7,O=C(COC(=O)Cn1cnc2ccccc2c1=O)Nc1ccc2c(c1)OCO2
-1.9,0.694,.,3.7,.,.,.,-0.4,-17.6,CC(=O)c1c(NCc2ccccc2)nc(=O)n(-c2ccccc2)c1C
2.1,0.546,2.6,5.1,4.8,-2.0,i,.,25.5,O=C(/C=C/c1ccccc1O)c1ccco1

Source: PubChem
